Env fusion inh = blocks HIV Env-driven cell-cell fusion; inhibition, % at 12.3 µM; HeLa-JRFL Env/CEM21 cell fusion, luciferase; hit rate 1.1% among 360,000;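 active = mean replicate inhibition score of at least 50 and every replicate individually at or above 50; inconclusive = only one of the two criteria met; inactive = mean below 50 and not all replicates reaching 50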;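 note: 0% = plate neutral controls and 100% = maraviroc near 300 nM; one replicate is shown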
An asterisk follows results filed as active; u = inconclusive; [ ] = another dose, or the depositor's remark.

SMILES | Env fusion inh
Cc1ccc(S(=O)(=O)Nc2ccc3c(c2)CC(=O)N([C@H](C)CO)C[C@@H](C)[C@@H](CN(C)Cc2ccc(C(=O)O)cc2)O3)cc1 | 7.5[16.7 µM]
CC(C)NC(=O)Nc1ccc2c(c1)C(=O)N(C)[C@@H]1CC[C@H](CC(=O)NCc3ccc(F)cc3)O[C@H]1CO2 | -13.2[16.7 µM]
COc1ccc(Cc2c(-c3ccccc3)nc3ccc(C)cn23)c(C)c1 | -8.0
O=C(C[C@H]1C[C@@H]2c3cc(NC(=O)C4CCOCC4)ccc3O[C@@H]2[C@@H](CO)O1)NCc1cc(F)ccc1F | -1.7[16.7 µM]
CCNC(=O)OC[C@H]1O[C@H](C#Cc2ccc(C(C)(C)C)cc2)C=C[C@H]1O | -2.4
C[C@H](NC(=O)C[C@H]1C[C@H]2c3cc(NC(=O)C4CCOCC4)ccc3O[C@H]2[C@@H](CO)O1)c1ccccc1 | 0.9[16.7 µM]
O=C(C[C@H]1CC[C@@H]2[C@H](COC[C@@H](O)CN2S(=O)(=O)c2ccccc2)O1)NCc1ccc(-c2ccccc2)cc1 | -1.6[16.7 µM]
COC(=O)C1=C(C)N(Cc2cccc(C(F)(F)F)c2)C(=NCc2ccc(OC)cc2)NC1c1cccc(F)c1 (stereo not given) | 24.1
COC(=O)C1=C(C)N(Cc2ccc(Cl)cc2)C(=S)NC1c1ccc(OC)cc1 (stereo not given) | 84.1*
CCCNC(=O)N1C[C@H](C)[C@@H](OC)CN(C)C(=O)c2cc(NC(=O)CCC)ccc2OC[C@H]1C | -8.7[16.7 µM]
C[C@@H]1CN([C@@H](C)CO)C(=O)c2ccccc2-c2ccccc2CO[C@@H]1CN(C)C(=O)[C@H](C)c1ccccc1 | 52.7[16.7 µM]
O=C(Nc1nccs1)[C@H]1[C@H](CO)[C@H]2Cn3c(ccc(-c4cncnc4)c3=O)[C@H]2N1CC1CCCC1 | -10.7[16.7 µM]
Cc1ccc(S(=O)(=O)N(C)C[C@@H]2Oc3ccc(NC(=O)Nc4cccc5ccccc45)cc3C(=O)N([C@H](C)CO)C[C@@H]2C)cc1 | 16.9[16.7 µM]
CN1C(=O)c2cc(NC(=O)C3CCOCC3)ccc2OC[C@H]2O[C@@H](CC(=O)NCC3CCCCC3)CC[C@@H]21 | 15.0[16.7 µM]
CO[C@H]1CN(C)C(=O)c2cc(NC(=O)C3CC3)ccc2OC[C@H](C)N(C(=O)CN2CCOCC2)C[C@H]1C | 4.6[16.7 µM]
COc1ccc(NC(=O)N(C)C[C@H]2Oc3ccc(N(C)C)cc3C(=O)N([C@H](C)CO)C[C@@H]2C)cc1 | 5.5[16.7 µM]
CC(C)NC(=O)Nc1ccc2c(c1)C(=O)N([C@H](C)CO)C[C@H](C)[C@H](CN(C)C(=O)C1CCCCC1)OCCCC[C@H](C)O2 | -22.5[16.7 µM]
CO[C@@H]1CN(C)C(=O)c2cc(NC(=O)c3ccccc3F)ccc2OC[C@@H](C)NC[C@@H]1C | -2.0[16.7 µM]
C[C@@H]1CN([C@@H](C)CO)C(=O)c2cc(NC(=O)CCCN(C)C)ccc2O[C@@H]1CN(C)C(=O)NC1CCCCC1 | -7.3[16.7 µM]
C[C@H]1CN([C@@H](C)CO)C(=O)c2c(c3ccccc3n2C)-c2ccccc2CO[C@@H]1CN(C)S(=O)(=O)c1cccc(C#N)c1 | -0.3[16.7 µM]

Some of these compounds in order of the Env fusion inh value, descending.
molecule	Env fusion inh
COC(=O)C1=C(C)N(Cc2ccc(Cl)cc2)C(=S)NC1c1ccc(OC)cc1 (stereo not given)	84.1*
COC(=O)C1=C(C)N(Cc2cccc(C(F)(F)F)c2)C(=NCc2ccc(OC)cc2)NC1c1cccc(F)c1 (stereo not given)	24.1
CCNC(=O)OC[C@H]1O[C@H](C#Cc2ccc(C(C)(C)C)cc2)C=C[C@H]1O	-2.4
COc1ccc(Cc2c(-c3ccccc3)nc3ccc(C)cn23)c(C)c1	-8.0

The list continues.
SMILES | Env fusion inh
CC(C)CC#Cc1ccc2c(c1)O[C@@H](CN(C)Cc1ccccc1)[C@H](C)CN([C@H](C)CO)S2(=O)=O | 6.3[16.7 µM]
Cc1ccc(S(=O)(=O)Nc2ccc3c(c2)CC(=O)N([C@@H](C)CO)C[C@@H](C)[C@H](CN(C)Cc2ccc(C(F)(F)F)cc2)O3)cc1 | 39.3[16.7 µM]
O=C(N[C@@H](Cc1cccnc1)C(=O)N1CCC[C@H]1C(=O)NCCc1ccccc1Cl)c1ccccc1 | -8.7
C[C@@H]1CCCCO[C@H](CN(C)CC2CC2)[C@H](C)CN([C@H](C)CO)C(=O)c2cc(NC(=O)C3CCCCC3)ccc2O1 | 23.5[16.7 µM]
Cn1cc(CCOCc2ccc(Br)cc2)c2ccccc21 | 8.1
CC(=O)O[C@H]1CC[C@]2(C)C3CC[C@]4(C)[C@@H]([C@H](C)/C=C/[C@H](C)C(C)C)CC[C@H]4[C@@]34C=C[C@]2(C1)N(C(=O)c1ccccc1)O4 (stereo not given in full) | -14.1
O=C(N[C@H]1C=C[C@H](CC(=O)N2CCc3ccccc3C2)O[C@@H]1CO)C1CC1 | -1.1[16.7 µM]
C[C@@H]1CCCCO[C@H](CN(C)S(=O)(=O)c2ccccc2)[C@H](C)CN([C@@H](C)CO)C(=O)c2cc(N(C)C)ccc2O1 | 15.3[16.7 µM]
CO[C@H]1CC[C@@H]2CCN(C)C(=O)[C@@H](C)[C@H](OC)CN(C)C(=O)c3cc(C#N)ccc3OC[C@@H]1O2 | 27.6[16.7 µM]
O=C(C[C@H]1C[C@H]2c3cc(NC(=O)Nc4ccccc4)ccc3O[C@H]2[C@@H](CO)O1)NCCN1CCCCC1 | 2.2[16.7 µM]
CC[C@H](NC(=O)[C@H](Cc1ccccc1)NC(=O)[C@H]1O[C@@H](n2cnc3c(=O)[nH]c(N)nc32)[C@H](O)[C@@H]1O)c1ccccc1 | -9.8
CSc1ccc(Oc2cccc3c2S(=O)(=O)N(C2CC2)C[C@@H](COCc2ccccc2)O3)cc1C | -2.5
CO[C@@H]1CN(C)C(=O)c2ccc(NC(C)=O)cc2OC[C@@H](C)N(C(=O)CN(C)C)C[C@@H]1C | -8.2[16.7 µM]
C[C@H](CO)N1C[C@H](C)[C@H](CN(C)Cc2ccc(Oc3ccccc3)cc2)Oc2ncc(-c3cncnc3)cc2C1=O | 6.5[16.7 µM]
O=C(C[C@H]1C=C[C@@H](NC(=O)Nc2ccccc2F)[C@@H](CO)O1)NCc1ccc(-c2ccccc2)cc1 | 83.6*[16.7 µM]
O=C(C1=C[C@H](C2CC2)C[C@H](OCCCCO)O1)N1CCCC1 | 22.5[16.7 µM]
Cc1cccc(C)c1NC(=O)C1(C)CN(S(C)(=O)=O)CC(=O)N1Cc1ccc2c(c1)OCO2 (stereo not given) | 0.8
Nc1[nH]c(C(=O)c2ccccc2)c(-c2ccc3ccccc3c2)c1C(=O)NC1CC1 | -5.5
CO[C@H]1CN(C)C(=O)c2ccc(NC(=O)c3ccccc3)cc2OC[C@H](C)N(C(=O)C2CC2)C[C@@H]1C | -0.7[16.7 µM]
O=C(C[C@H]1C[C@@H]2c3cc(NC(=O)c4ccc5c(c4)OCO5)ccc3O[C@@H]2[C@@H](CO)O1)NCc1cc(F)ccc1F | 3.7[16.7 µM]
O=C(CCN1CCCCC1)N[C@H]1CC[C@H](CC(=O)N2CCC(Cc3ccccc3)CC2)O[C@@H]1CO | -1.3[16.7 µM]
CNC[C@@H]1OCCCC[C@@H](C)Oc2ccc(NC(=O)NC(C)C)cc2C(=O)N([C@@H](C)CO)C[C@H]1C | 7.5[16.7 µM]
C=CCN=C1NC(c2ccccc2C(F)(F)F)C(C(=O)OC)=C(C)N1Cc1ccc(C(F)(F)F)cc1 (stereo not given) | -43.3
C[C@H](CO)N1C[C@H](C)[C@@H](CN(C)C(=O)C2CCCCC2)OCCCC[C@H](C)Oc2ccc(N(C)C)cc2C1=O | -23.5[16.7 µM]
COc1ccc(-c2ccc3n(c2=O)C[C@@H]2[C@@H](CO)[C@H](C(=O)NCC4CC4)N(C(=O)NC(C)C)[C@H]32)cc1 | -0.2[16.7 µM]
CO[C@@H]1CN(C)C(=O)c2ccc(NS(C)(=O)=O)cc2OC[C@H](C)N(C(=O)c2ccc3c(c2)OCO3)C[C@H]1C | -2.0[16.7 µM]
O=C(Nc1cccc(Cl)c1)N[C@H]1CC[C@H](CCn2cc(Cc3ccccc3)nn2)O[C@H]1CO | -4.7[16.7 µM]
CO[C@@H](CN(C)S(=O)(=O)c1ccc(Cl)cc1)[C@H](C)CN([C@H](C)CO)S(=O)(=O)c1cccc(Cl)c1 | u
CO[C@@H]1CN(C)C(=O)c2cc(NS(C)(=O)=O)ccc2OC[C@@H](C)NC[C@H]1C | -11.2[16.7 µM]
C[C@@H]1CN([C@H](C)CO)C(=O)Cc2cc(NS(=O)(=O)c3cccs3)ccc2O[C@@H]1CN(C)S(=O)(=O)c1cccs1 | -3.3[16.7 µM]
COc1cccc(S(=O)(=O)N2C[C@@H](O)COC[C@H]3O[C@@H](CC(=O)Nc4ccccc4)CC[C@@H]32)c1 | 5.8[16.7 µM]
CO[C@@H]1CN(C)C(=O)c2ccc(NC(=O)C3CCC3)cc2OC[C@@H](C)N(C(=O)CN(C)C)C[C@@H]1C | -3.1[16.7 µM]
C[C@H]1CN([C@@H](C)CO)C(=O)c2cc(NC(=O)Cc3cn(C)c4ccccc34)ccc2O[C@@H]1CN(C)Cc1ccncc1 | -11.8[16.7 µM]
CCNC(=O)Nc1ccc2c(c1)C(=O)N(C)[C@H]1CC[C@@H](CC(=O)N[C@H](C)c3ccccc3)O[C@H]1CO2 | -1.0[16.7 µM]
Cc1ccc2nc(CN(C)C(=O)[C@@H](Cc3ccccc3)NC(=O)[C@H]3O[C@@H](n4cnc(C(N)=O)n4)[C@H](O)[C@@H]3O)[nH]c2c1 | 16.6
C[C@H](c1ccccc1)N1C[C@@H](COCc2ccccc2)Oc2cccc(N3CCCCC3)c2S1(=O)=O | 58.6*
Cc1cc(NC(=O)CCc2c[nH]c3ccccc23)ccc1Oc1cccnc1 | -51.8
C[C@H](CO)N1C[C@H](C)[C@H](CN(C)S(=O)(=O)c2cccs2)OCc2ccccc2-c2c(n(C)c3ccccc23)C1=O | 16.5[16.7 µM]
CC(C)OC(=O)N(C)C[C@H]1OCc2cn(nn2)CCCC(=O)N([C@@H](C)CO)C[C@H]1C | -2.5[16.7 µM]
C[C@H](CO)N1C[C@H](C)[C@@H](CN(C)S(C)(=O)=O)OCCCC[C@H](C)Oc2ccc(NC(=O)c3ccncc3)cc2C1=O | 9.5[16.7 µM]
O=C(CCN1CCCCC1)N[C@H]1CC[C@@H](CC(=O)N2CCC(Cc3ccccc3)CC2)O[C@@H]1CO | -1.8[16.7 µM]
O=C(CN1CCOCC1)N[C@@H]1CC[C@H](CCNC(=O)C2CCC2)O[C@H]1CO | 3.2[16.7 µM]
F[B-](F)(F)c1cncnc1 | 11.1
COc1ccccc1S(=O)(=O)N(C)C[C@H]1OCc2ccccc2-c2ccccc2C(=O)N([C@H](C)CO)C[C@H]1C | -60.6[16.7 µM]
C[C@@H]1CN([C@@H](C)CO)C(=O)Cc2cc(NC(=O)CCN3CCOCC3)ccc2O[C@H]1CN(C)Cc1ccncc1 | -41.9[16.7 µM]
Brc1ccc(CN2CCCc3nc(-c4ccccc4)ccc32)cc1 | 7.0
C[C@@H]1CN([C@@H](C)CO)C(=O)c2cc(NC(=O)c3ccncc3)ccc2O[C@@H](C)CCCCO[C@H]1CN(C)CC1CCCCC1 | 0.2[16.7 µM]
Cc1cc(O)cc(=O)n1-c1cc(Cl)cc(Cl)c1 | -15.4
O=C(C[C@H]1CC[C@@H]2[C@H](COC[C@@H](O)CN2C(=O)c2ccc(F)cc2)O1)Nc1ccc(-c2ccccc2)cc1 | 6.6[16.7 µM]
O=C(C[C@H]1C[C@H]2c3cc(NC(=O)Nc4ccc(C(F)(F)F)cc4)ccc3O[C@H]2[C@H](CO)O1)NCc1ccc(Cl)cc1 | -10.0[16.7 µM]
C/C=C/c1ccccc1[C@H]1[C@H](C#N)N(C(C)=O)[C@H]1CO | -24.1[16.7 µM]
COc1ccccc1NC(=O)Nc1ccc2c(c1)C(=O)N(C)C[C@@H](OC)[C@H](C)CN[C@@H](C)CO2 | -23.2[16.7 µM]
COC(=O)C1=C(C)N(C)C(=NCc2cc(OC)c(OC)c(OC)c2)NC1c1cccc(C(F)(F)F)c1 (stereo not given) | -2.5
Cc1cccc(NC(=O)Nc2ccc3c(c2)C(=O)N(C)[C@H]2CC[C@H](CC(=O)NCc4ccccc4Cl)O[C@H]2CO3)c1 | 12.9[16.7 µM]
C[C@H](NC(=O)C[C@@H]1C=C[C@H](NC(=O)Nc2ccc3c(c2)OCO3)[C@@H](CO)O1)c1ccccc1 | 2.4[16.7 µM]
COc1cccc(NC(=O)N[C@@H]2CC[C@@H](CC(=O)N3CCCCC3)O[C@H]2CO)c1 | -3.7[16.7 µM]
C[C@@H]1CN([C@H](C)CO)C(=O)c2ccccc2-c2ccccc2CO[C@H]1CN(C)C(=O)CCN(C)C | -6.5[16.7 µM]
C[C@H](CO)N1C[C@H](C)[C@@H](CN(C)Cc2ccccc2)OCCCC[C@H](C)Oc2ccc(NC(=O)c3ccncc3)cc2C1=O | 19.2[16.7 µM]
COc1ccccc1CNC(=O)C[C@@H]1C[C@H]2c3cc(NC(=O)c4cccnc4)ccc3O[C@H]2[C@@H](CO)O1 | -3.2[16.7 µM]
Cc1nn(C)cc1NC(=O)C[C@H]1CC[C@H]2[C@H](COc3ccc(NC(=O)c4cccc(F)c4)cc3C(=O)N2C)O1 | -6.1[16.7 µM]

3 of these compounds, set out differently:
| Env fusion inh | Compound |
| --- | --- |
| -15.4 | Cc1cc(O)cc(=O)n1-c1cc(Cl)cc(Cl)c1 |
| 6.6[16.7 µM] | O=C(C[C@H]1CC[C@@H]2[C@H](COC[C@@H](O)CN2C(=O)c2ccc(F)cc2)O1)Nc1ccc(-c2ccccc2)cc1 |
| -10.0[16.7 µM] | O=C(C[C@H]1C[C@H]2c3cc(NC(=O)Nc4ccc(C(F)(F)F)cc4)ccc3O[C@H]2[C@H](CO)O1)NCc1ccc(Cl)cc1 |

This is a subset, so the mix of outcomes need not match the whole.
